Compound activity from PubChem.
Sfp PPTase inh = inhibitors of Bacillus subtilis Sfp phosphopantetheinyl transferase. Potency, µM, inactives show max response, negative = inhibition, usual class: inhibitors. 3.5% of 310,000 active. AID 1490. Biochemical Sfp PPTase activity, qHTS. Q9F4F7; active means well fitted inhibition curve with a large enough effect; inconclusive means small, poorly fitted or top-dose-only effect, or another doubt; inactive means no such curve, though single readings can be large or run the other way;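 further: the enzyme is Sfp with the accession as filed and its product quenches rhodamine fluorescence; potency means the concentration at half of the fitted maximal effect; 0% = enzyme reaction without inhibitor and -100% = no enzyme wells; top concentration of the series not given in the record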
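Buffer: 50 mM Hepes-Na pH 7.6, 10 mM MgCl2, 0.01% Nonidet P-40, 0.01% BSA. Enzyme 15 nM, pre-exposed to compound 15 min; substrates then added and fluorescence change tracked over 30 min.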
TRPV1 PAM = human TRPV1 potentiation; Q8NER1; AID 540277; potentiation, % at 8.33 µM; 0.02% of 320,000 active; TRPV1-expressing cells, Fluo-8 calcium influx, capsaicin EC20 potentiation; host cell line not named in the record; control for the full effect not named in the record; active means potentiation above 80%; inconclusive means 30% to 80%; inactive means below 30%; further: 0% is about no effect
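TRPV1-expressing cells were cultured overnight at 35.5C and loaded with Fluo-8 calcium dye for 40 to 90 min at room temperature. After a 10 s baseline, compound was added and calcium influx was read kinetically for 3 min (ex 480/em 520 nm).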
CtBP-E1A inh = inhibitors of CtBP/E1A interaction. activity change, % (test concentration not listed). 0.49% of 340,000 active. AlphaScreen GST-E1A/His-CtBP binding, 1536-well; stronger effect = lower value; control for the full effect not named in the record; in the data active means activity change below about -65%; inconclusive means about -30% to -65%; inactive means above about -30%; further: on the % scale 0 is the no-effect control and ±100 the full control effect; compound concentration not given in the record
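In 5 uL wells, 23 nL compound meets equimolar GST-E1A and His-CtBP (5X stock 125 nM each) for 2 h, 37 °C. Beads (5X, 50 ug/mL) then 1 h, 37 °C, dark.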
Six1-Eya2 inh = blocks human Six1 binding to Eya2; AlphaScreen GST-Six1/His-Eya2 binding, biochemical; stronger effect = lower value; control for the full effect not named in the record; activity change, % (concentration not given with the values); 0.56% of 360,000 active; Q15475+O00167; in the data active = activity change below about -65%; inconclusive = about -30% to -65%; inactive = above about -30%; further: on the % scale 0 is the no-effect control and ±100 the full control effect
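Homogeneous AlphaScreen proximity assay pairing GST-Six1 with His-tagged Eya2 (added as 5X mix: 250 nM and 500 nM) in 50 mM Tris pH 8.0, 300 mM NaCl, 1 mM TCEP. Glutathione donor and nickel acceptor beads; 1 h, 37 °C, dark.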
PINK1 expr mod = modulators of PINK1 expression. PINK1 immunofluorescence, high-content cytometry, 24 h. Potency, µM (titrated, usually from 76.6 µM), for the others: at the top dose activation (PINK1 increase), most hits filed as activators. 0.2% of 410,000 active. AID 624263; active = well fitted activation curve with a large enough effect; inconclusive = small, poorly fitted or top-dose-only effect; inactive = flat fitted curve, though single readings scatter; cell line not stated here;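 further: potency means the concentration at half of the fitted maximal effect; % of control where 0% means no effect; nearly all actives have a fitted effect of over 65% in size; a mitochondrial uncoupler was the plate control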
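PINK1 protein level read as immunofluorescence by microplate cytometer in a fixed, stained stable cell line after 24 h exposure to five compound concentrations, with CCCP as control.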
D2 potentiator = positive allosteric modulators of human D2 dopamine receptor. P14416. DiscoveRx D2 beta-arrestin cells, luminescence, 90 min; 100% = 57 uM dopamine signal. AID 624464. potentiation, % (concentration not given with the values). 0.23% of 360,000 active; active = potentiation of 50% or more; inconclusive = 30% to 50%; inactive = 30% or less;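 further: compound concentration not given in the record; tested on top of an EC20 dose of dopamine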
Target sequence (P14416 whole entry, looked up): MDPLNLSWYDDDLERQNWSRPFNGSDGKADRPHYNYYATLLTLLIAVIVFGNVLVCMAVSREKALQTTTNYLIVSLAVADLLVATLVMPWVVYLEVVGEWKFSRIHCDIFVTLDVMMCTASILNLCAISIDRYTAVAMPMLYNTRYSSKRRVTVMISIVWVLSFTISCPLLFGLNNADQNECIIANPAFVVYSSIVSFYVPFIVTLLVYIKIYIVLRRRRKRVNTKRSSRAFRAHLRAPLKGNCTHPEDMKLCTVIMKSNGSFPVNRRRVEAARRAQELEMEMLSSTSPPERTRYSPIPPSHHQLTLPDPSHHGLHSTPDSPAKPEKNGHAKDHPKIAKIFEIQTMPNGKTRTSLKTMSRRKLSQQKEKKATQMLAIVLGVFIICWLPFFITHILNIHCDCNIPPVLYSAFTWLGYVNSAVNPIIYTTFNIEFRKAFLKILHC
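PathHunter beta-arrestin assay in DiscoveRx D2 cells. Compounds were added with an EC20 of dopamine (50 nM final) for 90 min at 37 deg C. Luminescence was read 1 h after detection reagent, with 57 uM dopamine as the EC100 control.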
D2 ag = agonists of human D2 dopamine receptor (beta-arrestin); AID 624465; P14416; DiscoveRx PathHunter D2 beta-arrestin, luminescence, 90 min; 100% = 57 uM dopamine signal; activation, % (test concentration not listed); 0.084% of 360,000 active; in the data active = activation above about 40%; inconclusive = about 15% to 40%; inactive = below about 15%; further: compound concentration not given in the record; the text of the record calls up to 30% inactive
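Agonist mode: compounds alone added to overnight-plated D2 PathHunter cells for 90 min at 37 C, with 57 uM final dopamine (EC100) defining full response. Beta-arrestin recruitment detected by chemiluminescent reagent, read after 1 h at ambient temperature.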
Active calls of the source: *; ? = inconclusive; nt = not tested or not shown; & = joins results of further samples; [ ] = another dose, or the depositor's remark. Random draw from the library. Share with any hit: about 3.7%.

SMILES | Sfp PPTase inh | TRPV1 PAM | CtBP-E1A inh | Six1-Eya2 inh | PINK1 expr mod | D2 potentiator | D2 ag
COc1ccc(N2C(=O)NC3CC2(C)Oc2ccc(Cl)cc23)cc1OC (stereo not drawn) | 7.5% | 14.5 | -0.3 | -1.0 | 11.7% | -10.3 | -2.7
CC(OC(=O)c1ccc(Cl)c(S(=O)(=O)N2CCOCC2)c1)C(=O)Nc1ccc(S(N)(=O)=O)cc1 (stereo not drawn) | nt | 18.2 | 0.0 | 6.6 | -0.6% | -15.0 | -0.3
O=C(O)c1ccc(-n2nc(-c3ccccc3)c3ccccc3c2=O)cc1 | 15.6% | -13.2 | 2.1 | 8.3 | -1.5% | -5.0 | -2.5
COc1ccccc1CNC(=O)c1ccc(OC(F)F)c(OC)c1 | 9.1% | 0.7 | 11.0 | -2.9 | 0.9% | 2.7 | -5.4
Cn1nnnc1SCCNCC#Cc1ccccc1 | 4.9% | 5.0 | 4.9 | 0.5 | 1.4%[38.3 µM] | -17.9 | -3.9
Cc1onc(-c2ccccc2Cl)c1C(=O)N1CCc2ccccc21 | 3.8% | -2.9 | -17.8 | 2.0 | -0.8% | -1.1 | -2.4
C[C@@H]1CN(Cc2nnnn2CC(=O)NCCCn2cccn2)C[C@H](C)O1 | nt | nt | -16.5 | 9.9 | 1.1% | -3.7 | -1.7
COc1cc(-c2nnc(SCC(=O)c3ccccc3)o2)cc(OC)c1OC | 8.5% | -13.1 | -12.2 | -15.4 | nt | 12.8 | -3.2
CC(c1ccccc1C(O)c1ccccc1)N(C)C (stereo not drawn) | 11.5% | 18.7 | 10.5 | -11.2 | nt | 1.1 | -0.3
CCc1ccc(S(=O)(=O)NCc2ccc(N3CCN(C)CC3)cc2)cc1 | -3.3% | -3.7 | 12.3 | -1.7 | 0.1% | -4.0 | 1.2
O=C(CSc1ccccc1F)NNC(=O)c1ccncc1 | nt | 11.4 | 6.3 | -0.6 | 0.2% | -0.2 | 0.1
CC(C)(C)c1ccc(-n2ncc3c2CCCC3NC(=O)CCN2CCCO2)cc1 (stereo not drawn) | 2.3% | -14.3 | 3.4 | 4.0 | 0.7% | -2.6 | 4.4
Cc1sc(NC(=O)c2ccco2)c(C(Nc2ccccn2)c2ccccc2)c1C (stereo not drawn) | 0.3% | 9.7 | -3.2 | -12.0 | -1.1% | -54.3 | 0.0
COc1ccccc1CNC(=O)COC(=O)CC1CC2CCC1C2 (stereo not drawn) | nt | -11.4 | 8.2 | 0.5 | 2.8% | -8.2 | -0.2
Cn1cnnc1Sc1ccc(C(=O)OCC(=O)Nc2cc(Cl)cc(Cl)c2)cc1[N+](=O)[O-] | 7.0% | -1.1 | -7.4 | -8.9 | -0.6% | -24.3 | 1.3
COCCN1Cc2cccc(C(=O)NC3CCCCCC3)c2C1=O | 0.2% | 1.8 | 2.0 | -6.4 | 1.1% | -13.4 | -3.8
Cc1ccc(C(=O)NCc2nnc(SCC(=O)NC(C)c3ccccc3)n2C)cc1 (stereo not drawn) | 10.0% | 1.0 | -1.5 | 7.6 | 0.3% | -1.1 | -3.4
CCCCCC(=O)NNC(=S)NC(=O)c1ccc([N+](=O)[O-])cc1 | 35.5µM* | 2.6 | -23.0 | -5.0 | 1.3% | -4.1 | 2.3
O=C(CN1CSCC1=O)N1CCN(S(=O)(=O)c2cccc(F)c2)CC1 | nt | 7.4 | -2.5 | 4.2 | 0.1% | -5.4 | 1.3
COc1ccc(NC(=O)CS(=O)CC(=O)NCc2cccc(C(F)(F)F)c2)cc1 (stereo not drawn) | 14.3% | -11.7 | -0.6 | 2.7 | 5.2%[38.3 µM] | 3.5 | -1.0
O=C(CNc1cc(S(=O)(=O)N2CCOCC2)ccc1NCC1CCCO1)Nc1ccccc1F (stereo not drawn) | 6.9% | -12.7 | 4.4 | -6.2 | -1.6% | 7.6 | -0.9
CC1CN(c2oc(-c3ccco3)nc2S(=O)(=O)c2ccccc2)CC(C)O1 (stereo not drawn) | ? | -11.4 | 2.9 | 3.5 | -0.4% | 0.0 | -2.4
CCOc1ccccc1N1CCN(C(=O)c2ccc3c(c2)OCO3)CC1 | 14.5% | -20.1 | -0.4 | 3.4 | 6.4% | -8.4 | 0.7
S=C(Nc1cccc(Cl)c1)Nc1ccc2c(c1)OCCO2 | -5.8% | 9.7 | -1.8 | -1.2 | -0.1% | 2.3 | -2.1
CCCN1CCC(NC(=O)Cc2ccccc2OC)CC1 | 9.4% | -9.7 | nt | 3.1 | -1.2% | -2.8 | 4.2
COc1ccc(N2CCN(C(=O)c3ccc(CNc4c(N5CCOCC5)c(=O)c4=O)cc3)CC2)cc1 | 23.7% | 12.8 | -2.3 | -15.3 | 0.0% | 5.7 | 4.3
CC(C)c1ccc(NC(=O)C2=CC=CN3CCS(=O)(=O)N=C23)cc1 | nt | 6.3 | 1.2 | -0.8 | 1.4% | 9.3 | 13.2
CC(C(=O)NCc1ccccc1)N1C(=O)C2CC=C(Cl)CC2C1=O (stereo not drawn) | 9.6% | -7.3 | 10.5 | 5.6 | 0.6% | -19.9 | 2.9
CN(C)CCN1C(=O)C(O)=C(C(=O)c2ccco2)C1c1ccccc1F (stereo not drawn) | 9.0% | -20.5 | -0.9 | 6.9 | -0.3% | 1.1 | -2.3
COc1ccc(C2CC(c3cccc(C)c3)n3nc(N)nc3N2)cc1 (stereo not drawn) | 12.5% | 22.5 | -4.2 | 6.4 | -4.4% | -5.1 | -5.1
COc1ccc(-c2cc(C(=O)N3CCN(c4ccc(F)cc4)CC3)no2)cc1 | 8.1% | -4.2 | 17.1 | 1.4 | 11.9% | -5.3 | -4.8
Cc1cc(=O)c(C(=O)Nc2cccc(N3CCCC3=O)c2)nn1-c1ccccc1Cl | nt | 8.8 | -6.3 | 4.2 | -0.9% | -14.3 | 1.4
CC1(C)C2CCC(C2)C1C/C=N/NC(N)=S (stereo not drawn) | 1.7% | nt | 3.2 | -5.4 | 0.7% | -11.5 | -3.3
CN(CCc1ccccc1)C(=O)c1ccc(NC(=O)Cc2ccc(NC(=O)C3CCN(C(=O)C4CC4)CC3)cc2)cc1 | nt | nt | -12.4 | -19.7 | 2.8% | -1.9 | 0.0
CCOc1ccccc1CNC(=O)CCCn1ncn2c(cc3occc32)c1=O | -8.5% | -31.3 | nt | 5.5 | 0.9%&0.4% | -8.0 | -2.5
CCc1cc(=O)oc2cc(C)cc(OC(C)C(=O)NC3CCN(Cc4ccccc4)CC3)c12 (stereo not drawn) | 18.1% | -2.8 | 2.1 | 0.4 | 2.7% | -41.5 | -5.5
Cc1nc(-c2cccc(NS(=O)(=O)c3cccc4ccccc34)c2)cs1 | 16.3% | 3.3 | 3.6 | -1.9 | 5.5%[38.3 µM] | 9.0 | 1.8
CC(=O)c1ccc(N2CCN(C(=O)CCCc3nc4ccccc4s3)CC2)cc1 | 11.5% | -14.1 | -16.6 | -2.4 | -1.6% | -1.1 | 5.9
CCOC(=O)C1=C(COC(=O)CC(C)c2ccccc2)NC(=O)NC1C (stereo not drawn) | nt | 11.9 | nt | 0.1 | 2.9% | 18.4 | 0.3
O=C(CSc1n[nH]c(-c2cccnc2)n1)Nc1ccc([N+](=O)[O-])cc1Br | 1.8% | 22.3 | 4.0 | -3.2 | 1.2% | 1.2 | -1.5
COc1ccc(N/C=C2/Sc3ccccc3NC2=O)cc1 | ? | 3.7 | nt | -5.5 | 3.8% | 6.2 | ?
Cc1ccccc1C(=O)Nc1ccccc1-c1nnn(CC(=O)Nc2ccc3c(c2)OCCO3)n1 | 56.2µM* | 22.2 | -1.6 | 2.8 | 6.3%[38.3 µM] | -5.7 | -0.4
COc1ccccc1CNC(=O)COC(=O)c1ccc(S(=O)(=O)N2CCCC2)cc1 | 8.6% | 11.2 | -0.7 | 8.4 | -1.9% | 17.3 | -0.8
COc1ccc2nc(NC(=O)Cn3cnc4ccccc4c3=O)sc2c1 | -14.7% | -4.0 | nt | -28.7 | 1.4% | -15.1 | -7.0
COc1ccccc1/C=C/C(=O)c1ccc(Cl)cc1 | ? | -5.4 | -1.1 | -0.7 | ? | -5.0 | -2.7
O=C(NC(=S)Nc1ccc2cn[nH]c2c1)c1ccccc1 | ? | 18.0 | 4.5 | -2.5 | 2.5% | -0.6 | -5.7
COc1ccc(NC(=O)c2[nH]ncc2[N+](=O)[O-])cc1 | -26.8% | -5.8 | nt | 5.8 | 2.6% | -24.5 | 0.6

Part of the list above in order of count of non-hydrogen atoms, low to high:
SMILES | Sfp PPTase inh | TRPV1 PAM | CtBP-E1A inh | Six1-Eya2 inh | PINK1 expr mod | D2 potentiator | D2 ag
COc1ccc(NC(=O)c2[nH]ncc2[N+](=O)[O-])cc1 | -26.8% | -5.8 | nt | 5.8 | 2.6% | -24.5 | 0.6
COc1ccc(N/C=C2/Sc3ccccc3NC2=O)cc1 | ? | 3.7 | nt | -5.5 | 3.8% | 6.2 | ?
O=C(CSc1n[nH]c(-c2cccnc2)n1)Nc1ccc([N+](=O)[O-])cc1Br | 1.8% | 22.3 | 4.0 | -3.2 | 1.2% | 1.2 | -1.5
CC(=O)c1ccc(N2CCN(C(=O)CCCc3nc4ccccc4s3)CC2)cc1 | 11.5% | -14.1 | -16.6 | -2.4 | -1.6% | -1.1 | 5.9
COc1ccccc1CNC(=O)COC(=O)c1ccc(S(=O)(=O)N2CCCC2)cc1 | 8.6% | 11.2 | -0.7 | 8.4 | -1.9% | 17.3 | -0.8
Cc1ccccc1C(=O)Nc1ccccc1-c1nnn(CC(=O)Nc2ccc3c(c2)OCCO3)n1 | 56.2µM* | 22.2 | -1.6 | 2.8 | 6.3%[38.3 µM] | -5.7 | -0.4
